GALR2 ag = activates the human galanin receptor 2; AID 803; 140,000 tested, 0.48% active; GALR2-expressing cells, agonist activation read-out; activation, %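 (tested at 5 µM)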; O43603;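 active = above mean plus 3 SD of all compounds, about 5% in these data, not always enough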;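 note: 0% = vehicle buffer wells and 100% = reference agonist at full effect; tested in CHO reporter cells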
Target sequence (O43603 whole entry, looked up): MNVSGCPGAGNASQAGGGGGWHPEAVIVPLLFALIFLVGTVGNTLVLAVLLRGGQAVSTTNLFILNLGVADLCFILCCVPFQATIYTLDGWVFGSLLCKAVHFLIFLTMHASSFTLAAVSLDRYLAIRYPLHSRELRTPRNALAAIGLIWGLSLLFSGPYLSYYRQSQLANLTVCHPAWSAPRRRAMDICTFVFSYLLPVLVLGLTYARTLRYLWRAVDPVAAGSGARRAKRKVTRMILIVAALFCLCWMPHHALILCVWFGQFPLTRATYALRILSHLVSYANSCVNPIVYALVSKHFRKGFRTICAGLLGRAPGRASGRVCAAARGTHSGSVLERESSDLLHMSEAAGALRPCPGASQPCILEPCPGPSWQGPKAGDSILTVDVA
HSV augment = HSV replication enhancement; HSV replication augmentation in cells, fold increase; maximum fold increase; 220,000 tested, 0.005% active; AID 1956;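 active = peak rise of 1.5-fold or more in the series; inconclusive = self-fluorescent or not available for retest; tested in PC3 cells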;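 note: first round at 10 µM; read as green reporter fluorescence; hits show the peak of a series up to 25 µM; 1 = signal of infected wells without compound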
RGS16-Gao = regulators of human RGS16-Galphao interaction; bead-based flow cytometry RGS16-Galphao binding, fluorescence; actives lie on both sides; binding response (% of control), % at 10 µM; 220,000 tested, 0.38% active; AID 1441;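 active = below 25% or above 175%, edge rows of some plates excepted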;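 note: Galphao activated by GDP with aluminum fluoride before binding; 100% = wells without compound and 0% = beads without RGS; some results beyond the cut were filed as inactive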
Target sequence (O15492 whole entry, looked up): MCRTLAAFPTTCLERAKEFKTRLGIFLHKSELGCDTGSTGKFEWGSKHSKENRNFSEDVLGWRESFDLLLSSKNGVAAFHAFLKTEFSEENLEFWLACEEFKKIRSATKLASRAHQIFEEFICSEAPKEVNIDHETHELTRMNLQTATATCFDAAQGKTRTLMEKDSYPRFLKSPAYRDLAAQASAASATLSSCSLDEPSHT
Target sequence (P09471 whole entry, looked up): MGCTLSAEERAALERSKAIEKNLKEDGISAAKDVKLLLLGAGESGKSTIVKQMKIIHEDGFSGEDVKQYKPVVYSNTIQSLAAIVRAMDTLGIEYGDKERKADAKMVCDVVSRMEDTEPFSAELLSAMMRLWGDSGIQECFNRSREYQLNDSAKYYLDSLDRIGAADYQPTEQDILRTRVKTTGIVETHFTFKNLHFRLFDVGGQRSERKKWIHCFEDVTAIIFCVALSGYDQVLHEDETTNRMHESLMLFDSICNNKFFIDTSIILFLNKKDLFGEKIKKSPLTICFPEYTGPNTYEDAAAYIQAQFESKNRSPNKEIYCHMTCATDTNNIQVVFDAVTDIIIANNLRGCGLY
PKD1 kinase inh = inhibitors of human PKD1 kinase. PKD1 kinase fluorescence polarization assay. inhibition, %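 (about 10 µM by stock and volumes)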. AID 797. 200,000 tested, 0.056% active;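 active = inhibition of 50% or more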;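 note: controls were vehicle for no effect and a reference inhibitor for full effect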
Insulin prom inh = TRM-6 insulin promoter activity inhibition. TRM-6 cells (human fetal islet line), insulin promoter-eGFP reporter, imaging; reporter expression induced with tamoxifen. AID 1273. 130,000 tested, 0.9% active. inhibition, % at 2 µM;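 active = inhibition above the mean plus 3 SD, with well images judged a real hit on visual review, cut at about 60% in these data, passing the limit was not always enough; inconclusive = inhibition over the cutoff but images rejected on review; inactive = inhibition not above the cutoff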
Insulin prom inh cell count = second read-out of Insulin prom inh, no call of its own (marks repeat the call); normalized cell count, %; measured here: cell count, toxicity; reference of the scale not given here;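 cells exposed to compound for 48 h; stained nuclei by imaging scaled within each plate; lower means fewer cells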
HSV augment primary fold = further read-out of HSV augment, marked with its call; fold increase; compound at 10 µM; measured here: primary screen fold increase 10 uM; tested in PC3 cells;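 GFP signal in the first replicate; 1 = infected wells without compound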
Starred values were filed as active, the others as inactive. Outcome played no part in choosing rows, and some 1.2% of all compounds hit somewhere here.

O=C(NC1CCCCC1)C1CCCN(c2nnnn2-c2ccccc2)C1 (stereo not given) was read as GALR2 ag -0.6, HSV augment inactive, RGS16-Gao 94, PKD1 kinase inh 3, Insulin prom inh -19, Insulin prom inh cell count 90 and HSV augment primary fold 0.93.
Screening Cc1cc(C(=O)c2ccc(C(C)(C)C)cc2)c(NC(=O)CCl)s1 returned GALR2 ag 1.0, HSV augment inactive, RGS16-Gao 97, PKD1 kinase inh -12, Insulin prom inh 32, Insulin prom inh cell count 120 and HSV augment primary fold 0.83.
For S=C1NCCOCCOCCOCCNC(=S)N2CCOCCOCCN1CCOCCOCC2 the results were HSV augment inactive, RGS16-Gao 98, PKD1 kinase inh -3, Insulin prom inh -37, Insulin prom inh cell count 194 and HSV augment primary fold 0.98.
Screening C/C(=N\Nc1ncc(Cl)cc1Cl)c1ccc2c(c1)OCO2 returned HSV augment inactive, RGS16-Gao 109, PKD1 kinase inh -4 and HSV augment primary fold 0.93.
`Cc1ccccc1NC1=NC(=S)N(c2ccccc2)C12CCCCC2` gave GALR2 ag 0.1, HSV augment inactive, RGS16-Gao 111, PKD1 kinase inh -5, Insulin prom inh -14, Insulin prom inh cell count 100 and HSV augment primary fold 0.83.
Screening O=C(NNS(=O)(=O)c1ccc(Cl)cc1)c1cnn(-c2ccccc2)c1-n1cccc1 returned GALR2 ag -1.5, HSV augment inactive, RGS16-Gao 106, PKD1 kinase inh -4, Insulin prom inh 4, Insulin prom inh cell count 77 and HSV augment primary fold 0.98.
`N=c1n(Cc2ccccc2)c2ccccc2n1CC(O)c1ccco1` (stereo not given) gave GALR2 ag -1.2, HSV augment inconclusive, RGS16-Gao 103, PKD1 kinase inh 4, Insulin prom inh 0 and Insulin prom inh cell count 106.
For Cc1nc(N2CCOCC2)c(C#N)c(C)c1Br the results were GALR2 ag -2.0, HSV augment inactive, RGS16-Gao 101, PKD1 kinase inh -6, Insulin prom inh -38, Insulin prom inh cell count 190 and HSV augment primary fold 0.96.
Screening CCOc1ccc(C(=O)N/N=C/c2cc([N+](=O)[O-])cs2)cc1 returned HSV augment inactive, RGS16-Gao 105, PKD1 kinase inh -2 and HSV augment primary fold 1.1.
`CCn1c(-c2cccnc2Cl)nc2ccccc21` gave GALR2 ag -1.3, HSV augment inactive, RGS16-Gao 100, PKD1 kinase inh -15, Insulin prom inh 0, Insulin prom inh cell count 94 and HSV augment primary fold 0.87.
`CN(C)S(=O)(=O)c1ccc(N2CCOCC2)c(C(=O)O)c1` gave GALR2 ag -2.7, HSV augment inactive, RGS16-Gao 105, PKD1 kinase inh -4, Insulin prom inh 0, Insulin prom inh cell count 79 and HSV augment primary fold 0.84.
For Nc1cc2ccccc2oc1=O the results were GALR2 ag -3.1, HSV augment inactive, RGS16-Gao 101, PKD1 kinase inh -2, Insulin prom inh -11, Insulin prom inh cell count 63 and HSV augment primary fold 1.
`COCCOC(=O)c1c(C)oc2ccc(OC(=O)COc3c(F)c(F)c(F)c(F)c3F)cc12` gave GALR2 ag -2.3, HSV augment inactive, RGS16-Gao 105, PKD1 kinase inh -4, Insulin prom inh 3, Insulin prom inh cell count 127 and HSV augment primary fold 0.79.
O=C(OCC(=O)c1ccccc1Cl)c1cnccn1 was read as GALR2 ag 0.0, HSV augment inactive, RGS16-Gao 65, PKD1 kinase inh 9, Insulin prom inh -100, Insulin prom inh cell count 33 and HSV augment primary fold 0.97.
COC(=O)C1CCN(C(=O)CCC2CCCCC2)CC1 was read as GALR2 ag -1.4, HSV augment inactive, RGS16-Gao 100, PKD1 kinase inh -2 and HSV augment primary fold 0.95.
For COc1ccc(CNC2CCCCC2)cc1 the results were GALR2 ag -1.8, HSV augment inactive, RGS16-Gao 105, PKD1 kinase inh 2, Insulin prom inh 41, Insulin prom inh cell count 138 and HSV augment primary fold 0.94.
Cc1ccc(C2CC(=O)c3cnc(NC(=O)c4ccco4)nc3C2)cc1 (stereo not given) was read as GALR2 ag -0.6, HSV augment inactive, RGS16-Gao 103, PKD1 kinase inh 1 and HSV augment primary fold 1.
`CCn1c(SCC(=O)N/N=C\c2ccccc2OCC(=O)O)nnc1-c1ccc(Cl)cc1` gave HSV augment inactive, RGS16-Gao 104 and HSV augment primary fold 0.99.
Screening Cc1nc(NCc2ccccc2)[nH]c(=O)c1CCC(C)C returned GALR2 ag -2.5, HSV augment inactive, RGS16-Gao 111, PKD1 kinase inh 4, Insulin prom inh -252, Insulin prom inh cell count 94 and HSV augment primary fold 1.
O=C(CSCc1nc2ccccc2[nH]1)Nc1ccc(Oc2ccccc2)cc1 was read as GALR2 ag -1.0, HSV augment inactive, RGS16-Gao 107, PKD1 kinase inh 4, Insulin prom inh -8, Insulin prom inh cell count 181 and HSV augment primary fold 0.99.
Screening Cc1ccc2cc(CN(Cc3ccco3)C(=O)c3cccs3)c(=O)[nH]c2c1 returned GALR2 ag -2.9, HSV augment inactive, RGS16-Gao 93, PKD1 kinase inh 0, Insulin prom inh -20, Insulin prom inh cell count 113 and HSV augment primary fold 0.83.
`COC(=O)c1c(C(=O)OC)c(-c2ccccc2)n2c1CCC2` gave GALR2 ag -1.5, HSV augment inactive, RGS16-Gao 98, PKD1 kinase inh 0 and HSV augment primary fold 0.95.
Screening CCOC(=O)CCc1c(C)c2ccc(OCC)c(C)c2oc1=O returned GALR2 ag -1.8, HSV augment inactive, RGS16-Gao 100, PKD1 kinase inh -5, Insulin prom inh -64, Insulin prom inh cell count 120 and HSV augment primary fold 0.95.
Screening CC(C)/C=C/C(=O)N1CCC(N2CCC(C(=O)N3CCOCC3)CC2)CC1 returned HSV augment inactive, RGS16-Gao 103, PKD1 kinase inh -3 and HSV augment primary fold 0.99.
For COC(=O)CCSc1cc([N+](=O)[O-])cc2c1c(C1OCCS1)nn2-c1ccccc1 (stereo not given) the results were GALR2 ag 0.8, HSV augment inactive, RGS16-Gao 107, PKD1 kinase inh -7, Insulin prom inh -26, Insulin prom inh cell count 196 and HSV augment primary fold 0.84.
`COc1cccc(OCc2nnc(-c3cccs3)o2)c1` gave HSV augment inactive, RGS16-Gao 115, PKD1 kinase inh -3, Insulin prom inh 9, Insulin prom inh cell count 142 and HSV augment primary fold 0.98.
For Cc1ccc(-c2csc(Nc3ccc(C(=O)O)cc3)[n+]2Cc2ccccc2)cc1 the results were HSV augment inactive, RGS16-Gao 103, PKD1 kinase inh -8, Insulin prom inh -54, Insulin prom inh cell count 82 and HSV augment primary fold 1.
COc1ccc(NC(=O)O/N=C/c2ccccc2Cl)cc1 was read as HSV augment inactive, RGS16-Gao 99 and HSV augment primary fold 1.1.
O=C(NC1CCCc2ccccc21)C1CCN(C(=O)c2sccc2-n2cccc2)CC1 (stereo not given) was read as GALR2 ag -0.2, HSV augment inactive, RGS16-Gao 90, PKD1 kinase inh -18 and HSV augment primary fold 1.1.
For Cc1nnsc1C(=O)Nc1ccc(Cl)cc1 the results were GALR2 ag -1.6, HSV augment inactive, RGS16-Gao 56, PKD1 kinase inh -4, Insulin prom inh 0, Insulin prom inh cell count 154 and HSV augment primary fold 0.8.
`CCOP(=O)(c1ccccc1)C(O)c1ccc(Br)cc1` (stereo not given) gave GALR2 ag -0.1, HSV augment inactive, RGS16-Gao 104, PKD1 kinase inh 8, Insulin prom inh -33, Insulin prom inh cell count 110 and HSV augment primary fold 1.
Cc1occc1C(=O)N/N=C/c1ccccc1[N+](=O)[O-] was read as HSV augment inactive, RGS16-Gao 96 and HSV augment primary fold 0.99.
`CCOC(=O)N1CCN(c2c(N3CC=C(c4ccccc4)CC3)c(=O)c2=O)CC1` gave GALR2 ag -1.7, HSV augment inactive, RGS16-Gao 103, PKD1 kinase inh -7 and HSV augment primary fold 0.91.
Screening Cc1ccc(-c2nc3cc(Br)cnc3nc2-c2ccc(C)cc2)cc1 returned HSV augment inactive, RGS16-Gao 100, PKD1 kinase inh -6 and HSV augment primary fold 0.93.
O=C(NCc1ccncc1)C1CCCN(S(=O)(=O)Cc2ccccc2)C1 (stereo not given) was read as GALR2 ag -1.9, HSV augment inactive, RGS16-Gao 105, PKD1 kinase inh -3, Insulin prom inh -215, Insulin prom inh cell count 137 and HSV augment primary fold 0.92.
CC(C)N(Cc1nc(-c2ccccc2)no1)C(=O)c1ccc(Br)o1 was read as GALR2 ag -0.1, HSV augment inactive, RGS16-Gao 102, PKD1 kinase inh -3, Insulin prom inh -41, Insulin prom inh cell count 140 and HSV augment primary fold 0.98.

Quoted from the listing, 3 compounds:
Screening Cc1ccc(-c2nc3cc(Br)cnc3nc2-c2ccc(C)cc2)cc1 returned HSV augment inactive, RGS16-Gao 100, PKD1 kinase inh -6 and HSV augment primary fold 0.93.
O=C(NCc1ccncc1)C1CCCN(S(=O)(=O)Cc2ccccc2)C1 (stereo not given) was read as GALR2 ag -1.9, HSV augment inactive, RGS16-Gao 105, PKD1 kinase inh -3, Insulin prom inh -215, Insulin prom inh cell count 137 and HSV augment primary fold 0.92.
CC(C)N(Cc1nc(-c2ccccc2)no1)C(=O)c1ccc(Br)o1 was read as GALR2 ag -0.1, HSV augment inactive, RGS16-Gao 102, PKD1 kinase inh -3, Insulin prom inh -41, Insulin prom inh cell count 140 and HSV augment primary fold 0.98.

Following part.
Cc1cccc(-c2onc3ccc(C4(C)OCCO4)cc23)c1 was read as GALR2 ag -2.0, RGS16-Gao 102, PKD1 kinase inh 4, Insulin prom inh -46 and Insulin prom inh cell count 111.
N#Cc1ccc(OCC(=O)N/N=C2/CC(c3ccccc3)Oc3ccccc32)cc1 (stereo not given) was read as GALR2 ag 3.2, HSV augment inactive, RGS16-Gao 94, PKD1 kinase inh -7, Insulin prom inh -17, Insulin prom inh cell count 96 and HSV augment primary fold 1.1.
O=C(O)c1cc2ncc(CCO)cn2n1 was read as HSV augment inactive, RGS16-Gao 97, PKD1 kinase inh 9 and HSV augment primary fold 0.94.
For O=C(CN1CCN(S(=O)(=O)c2ccc(Cl)cc2)CC1)NC(=O)NC1CCCCC1 the results were GALR2 ag -2.0, HSV augment inactive, RGS16-Gao 102, PKD1 kinase inh -6 and HSV augment primary fold 0.93.
O=C(CCN1CCOCC1)N/N=C/c1cc(Br)cc(Br)c1O was read as HSV augment inactive, RGS16-Gao 112, PKD1 kinase inh -4 and HSV augment primary fold 1.
Screening COc1ccccc1Oc1nnnn1-c1ccc(C(N)=O)cc1 returned GALR2 ag -0.9, HSV augment inactive, RGS16-Gao 102, PKD1 kinase inh -2, Insulin prom inh 7, Insulin prom inh cell count 65 and HSV augment primary fold 0.9.
For Cc1cc(C)nc(NC(=O)COc2cc(Cl)cc(Cl)c2)n1 the results were GALR2 ag -0.8, HSV augment inactive, RGS16-Gao 105, PKD1 kinase inh 1, Insulin prom inh 6, Insulin prom inh cell count 132 and HSV augment primary fold 0.93.
COc1ccc(-c2csc(NC(=S)NC(=O)c3ccco3)n2)cc1 was read as HSV augment inactive, RGS16-Gao 103, PKD1 kinase inh 4, Insulin prom inh -27, Insulin prom inh cell count 108 and HSV augment primary fold 0.65.
O=C(C1=C[C@@H](c2coc3ccccc3c2=O)C[C@@H](OCc2ccc(CO)cc2)O1)N1CCOCC1 was read as HSV augment inactive, RGS16-Gao 108, PKD1 kinase inh 7 and HSV augment primary fold 0.93.
`O=C(N/N=C/C=C/c1ccccc1[N+](=O)[O-])c1cc(-c2ccccc2)n[nH]1` gave GALR2 ag -1.8, HSV augment inactive, RGS16-Gao 86, PKD1 kinase inh -9 and HSV augment primary fold 0.93.
For CN(Cc1ccccc1)C(=O)c1nc2ccccn2c1CN1CCc2sccc2C1 the results were HSV augment inactive, RGS16-Gao 106, PKD1 kinase inh -5 and HSV augment primary fold 1.
For COc1cc(/C=N\Nc2ccc([N+](=O)[O-])cc2)ccc1OCC(=O)Nc1ccc(C)c(C)c1 the results were GALR2 ag -0.7, RGS16-Gao 103, PKD1 kinase inh 6, Insulin prom inh -14 and Insulin prom inh cell count 90.
For O=C(Nc1ccccc1)C1CC=CCC1C(=O)OCC1CCCO1 (stereo not given) the results were GALR2 ag -0.5, HSV augment inactive, RGS16-Gao 107, PKD1 kinase inh -2 and HSV augment primary fold 1.1.
For COc1ccc(/C=N\NC(=O)c2cccc(Br)c2)c(OC)c1 the results were HSV augment inactive, RGS16-Gao 105, PKD1 kinase inh 3, Insulin prom inh 7, Insulin prom inh cell count 60 and HSV augment primary fold 1.
O=C(N/N=C/c1cccc(Oc2ccccc2)c1)c1cc[n+]([O-])cc1 was read as HSV augment inactive, RGS16-Gao 104, PKD1 kinase inh 11 and HSV augment primary fold 0.93.
Screening COc1ccc(CC(C)N2CCN(Cc3ccccc3)CC2)c(OC)c1 (stereo not given) returned GALR2 ag -0.7, HSV augment inactive, RGS16-Gao 100, PKD1 kinase inh -10, Insulin prom inh 10, Insulin prom inh cell count 84 and HSV augment primary fold 1.1.

Screening data as filed in PubChem.
